Assay outcomes from PubChem BioAssay.
CHRM1 agonist – human M1 muscarinic receptor agonists, primary screen, Fluo-8 calcium fluorescence, CHO-K1 cells, HTS; CHO-K1 hM1, agonist mode; 0% DMSO, 100% acetylcholine EC100; activation, % at 3 µM; actives 0.33% (n = 360,000); AID 588814, 2011;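 active = activation above the run's mean compound activation plus 3 SD, cut at about 16% in these data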;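 also: peak over basal fluorescence ratio within a 140 s kinetic read after compound addition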
M1 antag – human M1 muscarinic receptor antagonists, primary screen, CHO-K1 cells, Fluo-8 calcium fluorescence, 1536-well; Muscarinic acetylcholine receptor M1 (Homo sapiens), P11229; CHO-K1 hM1, ACh EC80 antagonist; inhibition, % at 3 µM; actives 1.3% (n = 360,000);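 active = percent inhibition above its own plate's cutoff, namely the mean of that plate's compound wells plus 3 SD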;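 also: peak over basal fluorescence ratio during 140 s after agonist addition; 0% = ACh EC80 plus DMSO and 100% = DMSO alone without agonist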
OXTR potentiate – human OXTR potentiators, primary screen, fluorescence, CHO-OTR cells, Fluo-8 calcium. Oxytocin receptor (Homo sapiens), P30559. Fluo-8 calcium fluorescence, potentiator mode; 0% = oxytocin EC15, 100% = EC100. actives 0.061% (n = 320,000). activation, % at 3 µM;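 active = activation above that plate's cutoff, the mean activation of tested compounds plus 3 SD, cut at about 6.6% in these data, passing the limit was not always enough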;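 also: 100% uses oxytocin at 75 nM as the full agonist control; some results filed as inactive read as strong as hits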
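Material: CHO-OTR cells, human receptor; compound dosing: single dose, 3.0 µM nominal final compound concentration; schedule: 6 min compound pre-incubation at room temperature, 100 s kinetic read; measured by: kinetic Fluo-8 calcium fluorescence; read-out basis: % activation vs EC15 and EC100 oxytocin; controls: EC15 oxytocin alone as 0%, 75 nM oxytocin as 100%; replicates: singlicate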
CHRM4 antagonist – human M4 muscarinic receptor antagonists, primary screen, CHO cells, Fluo-8 calcium fluorescence; Muscarinic acetylcholine receptor M4 (Homo sapiens), P08173; CHO-hM4 cells, ACh EC80; inhibition, % at 3 µM; actives 0.73% (n = 360,000); AID 624125, 2012;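 active = inhibition above its plate's cutoff, the mean inhibition of sample wells plus 3 SD, cut at about 27% in these data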;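 also: 0% = acetylcholine EC80 with DMSO and 100% = DMSO without agonist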
Target sequence (P08173 whole entry, looked up): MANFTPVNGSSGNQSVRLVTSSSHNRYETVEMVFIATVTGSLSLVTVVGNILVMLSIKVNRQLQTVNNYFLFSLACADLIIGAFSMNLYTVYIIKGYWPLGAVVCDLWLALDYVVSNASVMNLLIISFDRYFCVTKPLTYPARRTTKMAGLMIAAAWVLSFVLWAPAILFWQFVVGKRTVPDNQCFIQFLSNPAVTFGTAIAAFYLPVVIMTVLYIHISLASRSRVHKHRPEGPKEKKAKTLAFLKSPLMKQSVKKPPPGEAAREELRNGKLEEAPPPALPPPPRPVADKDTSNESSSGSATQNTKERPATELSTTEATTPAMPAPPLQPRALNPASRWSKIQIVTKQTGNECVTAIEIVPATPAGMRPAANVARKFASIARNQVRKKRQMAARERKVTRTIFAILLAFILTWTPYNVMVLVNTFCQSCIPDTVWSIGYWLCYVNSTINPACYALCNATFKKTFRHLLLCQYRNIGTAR
CHO-K1 Ca ag – counter-screen for M1 agonists: effect in parental CHO-K1 cells. Fluo-8 calcium fluorescence; scaled to maximal ATP response, vehicle zero. activation, % at 3 µM. actives 0.48% (n = 360,000); in the data active = activation above about 15%;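 also: untransfected CHO-K1 host cells lacking M1 receptor as counterscreen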
CHRM1 PAM – human M1 muscarinic receptor positive allosteric modulators, primary screen, CHO-K1 cells, Fluo-8 calcium fluorescence, 1536-well; activation, % at 3 µM; Muscarinic acetylcholine receptor M1 (Homo sapiens), P11229; actives 0.088% (n = 360,000); CHO-K1 hM1, ACh EC20; 0% = ACh EC20, 100% = maximal ACh; in the data active = activation above about 19%, passing the limit was not always enough
* hit, by the source's call; . = not tested or not shown. These rows are one share of the data. The share of hits here may be higher or lower than overall.

SMILES | CHRM1 agonist | M1 antag | OXTR potentiate | CHRM4 antagonist | CHO-K1 Ca ag | CHRM1 PAM
CC(=O)Oc1ccc(-c2cc3ccc(OC(C)=O)cc3oc2=O)cc1 | -3 | 0 | 2 | -7 | 0.8 | 3
Cc1nc2ccccc2n1S(=O)(=O)c1ccc(F)cc1 | -1 | -3 | -5 | 4 | -0.2 | 10
COc1ccc(/C(N)=N/OC(=O)CSc2ccccc2)cc1 | -3 | -24 | -9 | 1 | 0.9 | -2
COc1ccc2c(c1)OC(O)(C(F)(F)C(F)F)CC2=O (centres undefined) | 7 | -6 | -4 | -14 | 7.6 | 9
O=C1NC[C@H](c2ccccc2)OC(=O)[C@H](Cc2ccc(F)cc2)CC/C=C/C[C@@H]1CC(=O)N(CCO)Cc1ccccc1 | -7 | 17 | -10 | 22 | 4.3 | -8
CCOc1ccc(N2C(=O)CC(N3CCN(c4ccc(Cl)cc4)CC3)C2=O)cc1 (centres undefined) | -2 | -13 | -13 | -1 | -0.8 | 3
CC(C)(C)OC(=O)C[C@H]1C/C=C\C[C@H](CC(=O)N[C@H](CO)Cc2ccccc2)C(=O)N[C@H](C(C)(C)C)COC1=O | -4 | -1 | -5 | -1 | 0.1 | 5
O=C(NNC(=S)NC(=O)c1cn(-c2ccccc2)nc1-c1ccccc1)c1ccncc1 | 17* | -9 | -26 | 1 | 30* | -5
Cc1nc(=O)c(-c2ccccc2)c(C)n1-c1ccc(O)c(C(=O)O)c1 | 2 | -8 | -13 | -4 | -0.1 | 10
CCc1nc(SCc2ccc([N+](=O)[O-])cc2)n[nH]1 | -10 | -1 | 0 | 2 | 0.2 | 8
O=C(CSc1ncnc2ccccc12)NCc1ccc2c(c1)OCO2 | -3 | 4 | -6 | -22 | 1.1 | -2
COc1cc(OC)c(-n2cc(-c3ccc(Cl)cc3)[nH]c2=O)cc1Cl | 58* | 22 | -10 | 18 | 25* | -8
O=C(/C=C(O)/C=C/c1ccc(O)cc1)/C=C/c1ccc(O)cc1 | 30* | 34* | -9 | 41* | 47* | -31
CN(C(=O)CSc1nc(-c2ccccc2)cn1N)C(c1ccccc1)c1ccccc1 | 1 | -11 | -2 | 0 | 0.8 | 8
O=C(O)Cn1nc(C(F)(F)F)c2c1CCCCC2 | -2 | -15 | -1 | -5 | 0.3 | 6
OC1(c2ccc(OC(F)F)cc2)CSC(=Nc2cccnc2)N1C1CC1 (centres undefined) | 1 | 21* | -23 | 10 | 7.7 | -16
O=C1NC[C@H](c2ccccc2)OC(=O)[C@@H](Cc2ccc(F)cc2)CC/C=C/C[C@H]1CC(=O)N(CCO)Cc1ccccc1 | -3 | 32* | -7 | 20 | 6.7 | -16
O=C1NC[C@@H](c2ccccc2)OC(=O)[C@H](Cc2ccc(F)cc2)CC/C=C/C[C@H]1CC(=O)N(CCO)Cc1ccccc1 | -4 | 15 | -3 | 6 | 8.4 | -9
COc1cc2c(cc1OC)C1C(=O)c3cc(OS(C)(=O)=O)c(OC)cc3C1N(C)C2=O (centres undefined) | 0 | -7 | . | -16 | -0.5 | 3
Cc1ccc2c(CC(=O)N3CCN(S(=O)(=O)c4ccc5c(c4)OCCO5)CC3)coc2c1 | -2 | -2 | -19 | 3 | 1.1 | 2
CN1CCc2c(sc(/N=C/c3cccs3)c2C(N)=O)C1 | -4 | 3 | -16 | -5 | 2.2 | 3
Cn1cc(C2=C(c3ccc(Cl)cc3Cl)C(=O)NC2=O)c2ccccc21 | 7 | -8 | -11 | 0 | 5.6 | 0
COc1cc(S(=O)(=O)n2c(C)nc3ccccc32)ccc1F | -3 | -12 | -4 | -8 | -0.1 | 5
O=C(CCCN1CCc2[nH]c3ccc(F)cc3c2C1)c1ccc(F)cc1 | 1 | -5 | -23 | 14 | 24* | 7
O=C1NC[C@@H](c2ccccc2)OC(=O)[C@@H](Cc2ccc(F)cc2)CC/C=C/C[C@H]1CC(=O)N(CCO)Cc1ccccc1 | -7 | 7 | -9 | 3 | -0.1 | -6
O=C1NC[C@@H](c2ccccc2)OC(=O)[C@@H](Cc2ccc(F)cc2)CC/C=C/C[C@@H]1CC(=O)N(CCO)Cc1ccccc1 | -1 | 1 | -7 | -3 | 1.6 | -3

15 consecutive compounds already listed, quoted:
SMILES | CHRM1 agonist | M1 antag | OXTR potentiate | CHRM4 antagonist | CHO-K1 Ca ag | CHRM1 PAM
CCc1nc(SCc2ccc([N+](=O)[O-])cc2)n[nH]1 | -10 | -1 | 0 | 2 | 0.2 | 8
O=C(CSc1ncnc2ccccc12)NCc1ccc2c(c1)OCO2 | -3 | 4 | -6 | -22 | 1.1 | -2
COc1cc(OC)c(-n2cc(-c3ccc(Cl)cc3)[nH]c2=O)cc1Cl | 58* | 22 | -10 | 18 | 25* | -8
O=C(/C=C(O)/C=C/c1ccc(O)cc1)/C=C/c1ccc(O)cc1 | 30* | 34* | -9 | 41* | 47* | -31
CN(C(=O)CSc1nc(-c2ccccc2)cn1N)C(c1ccccc1)c1ccccc1 | 1 | -11 | -2 | 0 | 0.8 | 8
O=C(O)Cn1nc(C(F)(F)F)c2c1CCCCC2 | -2 | -15 | -1 | -5 | 0.3 | 6
OC1(c2ccc(OC(F)F)cc2)CSC(=Nc2cccnc2)N1C1CC1 (centres undefined) | 1 | 21* | -23 | 10 | 7.7 | -16
O=C1NC[C@H](c2ccccc2)OC(=O)[C@@H](Cc2ccc(F)cc2)CC/C=C/C[C@H]1CC(=O)N(CCO)Cc1ccccc1 | -3 | 32* | -7 | 20 | 6.7 | -16
O=C1NC[C@@H](c2ccccc2)OC(=O)[C@H](Cc2ccc(F)cc2)CC/C=C/C[C@H]1CC(=O)N(CCO)Cc1ccccc1 | -4 | 15 | -3 | 6 | 8.4 | -9
COc1cc2c(cc1OC)C1C(=O)c3cc(OS(C)(=O)=O)c(OC)cc3C1N(C)C2=O (centres undefined) | 0 | -7 | . | -16 | -0.5 | 3
Cc1ccc2c(CC(=O)N3CCN(S(=O)(=O)c4ccc5c(c4)OCCO5)CC3)coc2c1 | -2 | -2 | -19 | 3 | 1.1 | 2
CN1CCc2c(sc(/N=C/c3cccs3)c2C(N)=O)C1 | -4 | 3 | -16 | -5 | 2.2 | 3
Cn1cc(C2=C(c3ccc(Cl)cc3Cl)C(=O)NC2=O)c2ccccc21 | 7 | -8 | -11 | 0 | 5.6 | 0
COc1cc(S(=O)(=O)n2c(C)nc3ccccc32)ccc1F | -3 | -12 | -4 | -8 | -0.1 | 5
O=C(CCCN1CCc2[nH]c3ccc(F)cc3c2C1)c1ccc(F)cc1 | 1 | -5 | -23 | 14 | 24* | 7
